# ALR H2O2 inh: inhibitors of human ALR sulfhydryl oxidase, primary screen, biochemical, H2O2 detection, HRP-luminol luminescence, single point | AID 485317, 2010 | 3.8% of 290,000 active | inhibition, % (concentration not given with the values) | purified ALR, DTT oxidation;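 active = mean and each replicate at 75% or more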;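 also: stock transfer was 7.5 nL into about 7.5 µL; 0% = neutral wells and 100% = wells with inactivated enzyme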
# B2AR ag: beta2AR agonists driving receptor internalization, primary screen, cell-based, FAP fluorogen, flow cytometry | AID 504454, 2011 | 0.43% of 340,000 active | Am2.2-beta2AR cells; reference of the scale not given here | response, % (no concentration beside the values);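 active = response above a set limit, near 3 SD of response in nonfluorescent compounds, cut at about 42% in these data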;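 also: stock transfer was 100 nL into about 11 µL; a reference agonist was the positive control; negative values mostly stem from fluorescent compounds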
# Target sequence (P07550 whole entry, looked up): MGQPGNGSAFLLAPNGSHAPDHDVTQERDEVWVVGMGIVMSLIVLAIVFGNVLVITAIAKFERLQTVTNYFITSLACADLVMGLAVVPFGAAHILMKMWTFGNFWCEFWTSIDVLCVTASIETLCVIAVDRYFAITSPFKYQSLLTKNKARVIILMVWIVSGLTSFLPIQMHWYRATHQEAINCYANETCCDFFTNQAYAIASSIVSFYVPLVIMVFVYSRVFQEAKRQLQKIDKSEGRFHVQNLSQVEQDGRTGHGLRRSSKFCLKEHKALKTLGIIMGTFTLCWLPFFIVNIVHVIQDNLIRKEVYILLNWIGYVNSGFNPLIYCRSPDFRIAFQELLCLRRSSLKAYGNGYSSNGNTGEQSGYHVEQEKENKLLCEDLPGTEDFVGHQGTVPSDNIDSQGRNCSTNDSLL
# UCH37 inh: inhibitors of human UCH37 deubiquitinase, primary screen, biochemical, Ub-AMC cleavage, fluorescence; Ubiquitin carboxyl-terminal hydrolase isozyme L5 (Homo sapiens), Q9Y5K5; purified proteasome/UCH37; inhibition, % (no concentration beside the values); 0.33% of 330,000 active; AID 588478, 2011;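 active = mean of two replicates above 20%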;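 also: 0% = compound-free wells with enzyme and 100% = wells lacking proteasome; stock transfer was 100 nL into about 20 µL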
# Target sequence (Q9Y5K5 whole entry, looked up): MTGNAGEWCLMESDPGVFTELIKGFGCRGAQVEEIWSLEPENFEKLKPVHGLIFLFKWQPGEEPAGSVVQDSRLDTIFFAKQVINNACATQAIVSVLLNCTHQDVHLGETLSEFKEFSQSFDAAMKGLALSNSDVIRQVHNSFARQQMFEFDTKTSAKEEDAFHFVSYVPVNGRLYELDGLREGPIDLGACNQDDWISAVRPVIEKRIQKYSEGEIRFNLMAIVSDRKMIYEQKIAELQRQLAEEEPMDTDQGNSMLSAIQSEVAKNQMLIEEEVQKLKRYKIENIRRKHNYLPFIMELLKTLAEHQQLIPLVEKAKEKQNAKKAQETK
#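 Assay system: Proteasome-bound UCH37. Buffer or medium: pH 7.4 Tris-HCl (50 mM) with ovalbumin, ATP-MgCl2, DTT. Incubation: 30 min preincubation with enzyme, 25 min cleavage at room temperature. Measured by: fluorescence, ex 355 nm, em 460 nm. Read-out basis: percent inhibition. Control set: wells without proteasome as full block, compound-free enzyme plus substrate as uninhibited.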
# Ecoli growth: E. coli growth inhibition, primary screen, OD600 | Escherichia coli growth, 23 h; active compounds read low | OD600 absorbance (no concentration beside the values) | 0.21% of 330,000 active;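 active = OD600 absorbance below the run mean of sample wells minus 3.6 SD, in any replicate, cut at about 0.56 in these data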;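 also: stock transfer was 300 nL into about 60 µL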
# HNF4A DNA FP: change in binding of human HNF4A to DNA, primary screen, biochemical, fluorescence polarization, FITC-DNA; 0.3% of 360,000 active; Hepatocyte nuclear factor 4-alpha (Homo sapiens), P41235; 1 h; activity change, % at 10 µM; in the data active = activity change above about 30%, passing the limit was not always enough;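 also: controls were the assay level and a saturating level of protein; the project sought stronger binding though the title names inhibitors; some compounds called inactive have numbers as strong as hits; positive values seem to mean higher polarization but the record does not say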
# FGF22 binding: binders of human FGF22 protein, primary screen, FGF22 synaptogenesis inhibitor project, biophysical, thermal shift, single point. Fibroblast growth factor 22 (Homo sapiens), Q9HCT0. recombinant FGF22 thermal shift, SYPRO orange fluorescence; percent of sucrose octasulfate shift, DMSO zero. calls only at 9.99 µM. 1.5% of 340,000 active. AID 651658, 2012;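 active = melting point raised past a set limit in the mean and every replicate; three in four hits are not shown here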
# Target sequence (Q9HCT0 whole entry, looked up): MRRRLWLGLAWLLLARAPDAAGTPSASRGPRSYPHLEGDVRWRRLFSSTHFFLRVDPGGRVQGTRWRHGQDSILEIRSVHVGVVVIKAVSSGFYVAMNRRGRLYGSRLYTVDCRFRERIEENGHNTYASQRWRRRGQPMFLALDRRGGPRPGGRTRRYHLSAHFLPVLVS
# rRNA inh HTS: reduced GFP signal of wild-type E. coli, primary screen, bacterial rRNA inhibitor project, GFP/RFP fluorescence, OD600, single point; AID 720706, 2013; E. coli WT GFP vs humanized-ribosome RFP mutants, 24 h; active compounds read low; DMSO median 0, no signal -100; GFP signal change (wild-type ribosome), % (no concentration beside the values); 1.6% of 350,000 active;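 active = significant combined selectivity score with lowered wild-type GFP, culture density cut under 30%, mutant RFP and density less affected; inactive = any of these conditions unmet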; also: one replicate is shown; some compounds called inactive have numbers as strong as hits
# rRNA inh HTS OD600: also measured in rRNA inh HTS; calls as there; OD600 change, %; measured here: OD600 growth;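 optical density of the mix in the first replicate; 0 = DMSO median and -100 = no signal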
# rRNA inh HTS RFP: further read-out of rRNA inh HTS, marked with its call; RFP signal change, %; measured here: RFP humanized mutant strains;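 first replicate; 0 = DMSO median and -100 = no signal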
# * hit, by the source's call; i = inactive; . = not tested or not shown. A portion of the library; the hit share may differ from the screen's.
no.	molecule	ALR H2O2 inh	B2AR ag	UCH37 inh	Ecoli growth	HNF4A DNA FP	FGF22 binding	rRNA inh HTS	rRNA inh HTS OD600	rRNA inh HTS RFP
1	O=C(Nc1ccon1)C(Sc1ccccc1)c1ccccc1 (stereo unspecified)	-3	-5	0.0	0.66	1.3	.	.	.	.
2	CCOC(=O)/C(=C/c1ccc(Cl)cc1)NC(=O)c1ccco1	-3	10	3.8	0.65	-1.3	.	.	.	.
3	CCOC(=O)C1=CCN(S(=O)(=O)c2ccccc2Br)C1c1ccc(C)cc1 (stereo unspecified)	.	.	.	.	-0.9	i	-21	-20	-4.9
4	N=c1n(Cc2ccccc2Cl)c2ccccc2n1CC(O)c1ccco1 (stereo unspecified)	42	0	0.3	0.7	61*	i	6	10	1.0
5	Cc1ccc(C(=O)NCC(=O)N2CCc3ccccc3C2)cc1C	0	-2	-0.6	0.64	2.4	i	-5	-7	5.4
6	O=C(Cn1nc(-c2ccco2)ccc1=O)Nc1ccc(Br)cc1	0	-2	-42	0.69	0.7	i	-10	-12	-3.7
7	COc1ccccc1CNC(=O)C1=C(C)C(=O)OC12CCC(C)CC2 (stereo unspecified)	37	-10	0.3	0.78	-1.4	i	-9	-10	2.3
8	O=C(CSc1nc2ccccc2[nH]1)Nc1ccc2c(c1)CCC2	52	6	4.4	0.61	-4.3	i	-27	-22	0.1
9	O=C(CSc1nnc(-c2ccccc2)n1-c1ccc(Cl)cc1)NNC(=S)Nc1ccccc1	8	-12	1.4	0.68	0.6	i	.	.	.
10	CCOc1ccc(NC(=S)Nc2ccc(OCc3ccccc3)cc2)cc1	-1	-1	0.3	.	-0.5	.	.	.	.
11	CCOC(=O)C1CCCN(C(=S)Nc2cccc(Cl)c2)C1 (stereo unspecified)	.	4	3.2	0.72	-1.6	.	.	.	.
12	O=C(NCc1ccccc1C(F)(F)F)c1cccc2c1C(=O)c1ccc(N3CCC(N4CCCCC4)CC3)cc1S2(=O)=O	.	.	.	.	79	i	-4	-18	3.3
13	Nc1cc(=O)[nH]c(SCC(=O)c2ccc(F)cc2)n1	98*	1	0.7	0.64	-1.6	i	11	2	4.5
14	O=C(COc1ccc2ccccc2c1)NNC(=O)c1cnccn1	2	-9	-11	0.72	1.4	.	.	.	.
15	Cc1ccc(Oc2nc(-c3ccccc3)ncc2S(=O)(=O)c2ccc(C)cc2)cc1	0	5	2.2	0.75	1.1	.	.	.	.
16	S=c1[nH]nc(-c2cc3c(s2)-c2ccccc2CC3)o1	97*	12	i	0.72	-1.2	.	.	.	.
17	CC12CC(NC(=O)N1c1cccc(C(=O)NCc3ccccn3)c1)c1ccccc1O2 (stereo unspecified)	2	-4	-0.8	0.67	0.7	i	-2	1	0.0
18	O=C(NC1CCCCCC1)C1CCCN(S(=O)(=O)c2cnc[nH]2)C1 (stereo unspecified)	14	-1	0.1	0.74	3.4	i	6	-1	8.8
19	O=C(Nc1nnc(-c2ccccc2SCc2ccccc2)s1)Nc1ccccc1F	-2	1	3.5	0.67	1.2	.	.	.	.
20	O=C(CNC(=O)c1ccncc1)N/N=C/c1ccccn1	-5	-12	.	.	5.5	i	-1	0	-3.3
21	CC1=NN(C(=O)c2ccccc2F)C(O)(c2ccc(Cl)cc2)C1 (stereo unspecified)	30	7	0.2	0.68	0.6	i	3	0	1.2
22	COc1ccc(CCNC(=O)Cc2ccc(OC)c(OC)c2)cc1OC	1	5	-1.4	0.79	-0.3	i	8	12	-7.1
23	COC(=O)c1ccc(NS(=O)(=O)c2ccccc2)o1	39	-1	-0.4	0.7	0.1	.	13	2	7.2
24	O=C(COC(=O)c1cc(S(=O)(=O)N2CCOCC2)ccc1F)Nc1cc([N+](=O)[O-])ccc1F	.	2	2.4	0.73	1.2	i	-1	7	2.1
25	CC1CCN(CCCCOc2ccccc2Br)CC1	-16	13	4.8	0.7	1.8	i	9	-5	2.0
26	CC(=O)C1=C(C)OC(N)=C(C#N)C1c1cccc([N+](=O)[O-])c1 (stereo unspecified)	33	2	.	.	-0.2	i	17	11	2.1
27	O=C(c1cc2ccccc2c(=O)o1)N1CCc2ccccc2C1	-13	-12	-1.6	0.72	5.9	.	.	.	.
28	CCCNC(=O)Nc1ccc(C(F)(F)F)cc1	-4	1	5.1	0.62	2.0	i	-8	-3	-3.3
29	Cc1cc(C)[n+](-c2ccc(F)cc2)c2[nH]c(=O)[nH]c(=O)c12	-4	7	i	0.65	0.8	i	-4	1	0.7
30	CCOC(=O)Nc1cc(N)ncn1	.	-5	1.2	0.69	4.0	i	4	15	-1.3
31	Cc1ccc(-n2nc(C)c3onc(C)c3c2=O)cc1	.	1	1.3	0.7	2.6	i	5	13	-4.5
32	COc1ccc(Br)cc1CNC(=O)CCC(=O)N1CCSc2ccccc21	-7	-12	2.8	0.68	-2.0	i	-23	-62	-1.5
33	O=C(Nc1cccc(NC(=O)c2cccs2)c1)c1ccc([N+](=O)[O-])o1	-29	4	5.2	0.41*	1.2	i	-54	-80	-29
34	COC(=O)CNC(=O)c1ccc(=O)oc1	-8	-7	15	0.76	-0.2	.	.	.	.
35	O=C1CCC(=O)c2ccc3c4c(ccc1c24)CC3	.	5	-190	0.65	1.2	i	-19	-41	-0.9
36	CCn1c(SCC(=O)NC2CCCC2)nc2c1c(=O)n(C)c(=O)n2C	.	-4	.	.	-1.4	i	6	11	0.8
37	Cc1c(NC(=O)CSc2nnnn2Cc2ccccc2)c(=O)n(-c2ccccc2)n1C	-2	-5	1.5	0.69	0.8	.	.	.	.
38	COc1ccc(CCN(Cc2cc3cc(C)ccc3[nH]c2=O)C(=O)N2CCCC2)cc1OC	.	3	1.2	0.7	1.6	.	.	.	.
39	Nc1nc(SCc2c(F)cccc2Cl)[nH]c(=O)c1-c1ccccc1	.	-4	1.3	0.68	-1.0	.	.	.	.
40	O=C1NC[C@@H](CCCCN2C[C@H](Cc3ccc(O)cc3)N(CCc3ccc(O)cc3)C(=O)C2=O)N(Cc2ccccc2)C1=O	.	.	.	.	0.8	i	6	7	6.0
41	COc1cccc(C(=O)Nc2ccc3c(c2)OCO3)c1OC	1	3	5.3	0.69	-3.9	i	0	1	-0.4
42	COc1ccccc1NS(=O)(=O)c1cccc(C(=O)NNC(=O)C(NC(N)=O)C(C)C)c1 (stereo unspecified)	-4	0	-0.1	0.65	3.8	i	8	10	11
43	COc1cccc(NC2=C(C#N)C(=O)NC(c3cccc(OC)c3O)S2)c1 (stereo unspecified)	21	9	4.2	0.64	0.7	i	0	-5	-0.5
44	O=[N+]([O-])c1cc2c(cc1Br)-c1ccccc1C2	.	.	.	.	1.1	i	4	-3	1.7
45	COc1ccc(N(C(=O)c2ccco2)C(C(=O)NC2CCCC2)c2ccc(OC)c(OC)c2)cc1 (stereo unspecified)	.	3	1.2	0.7	2.5	i	3	5	-0.5
46	Cc1ccc(S(=O)(=O)N(CCC#N)CCN2CCCC2)cc1	-13	-3	1.2	0.71	3.8	.	.	.	.
47	Cc1ccc(S(=O)(=O)CCSc2cccc(C(=O)O)c2)cc1	8	4	-2.9	0.66	0.3	i	-4	-12	-3.2
48	Cc1cc(=O)oc(C)c1C(=O)N[C@@H]1CCCCNC1=O	-9	13	-3.6	0.74	0.3	.	.	.	.
49	CCN(CC)Cc1c(O)c(Cl)cc2c(C)cc(=O)oc12	.	8	i	0.69	-12	i	19	13	6.7
50	COc1ccc(C(=O)n2nc(C)cc2C)cc1Br	-10	-5	-0.8	0.69	-1.6	.	.	.	.
51	CCN(CC(=O)NC1CCS(=O)(=O)C1)S(=O)(=O)c1ccc(C)cc1C (stereo unspecified)	-2	-7	-0.2	0.67	5.1	i	10	11	-2.2
52	Cc1ccc(S(=O)(=O)N[C@H](C(=O)N2CCC3(O)CCCCC3C2)c2ccccc2)cc1 (stereo partly specified)	-3	5	-0.6	.	-0.1	.	.	.	.
53	O=C(c1ccco1)c1cc2c(ccc3ccccc32)oc1=O	-17	-9	-47	0.73	3.5	.	.	.	.
54	CC(C)NC(=O)C1CC(=O)N(c2ccc(F)c(Cl)c2)C1 (stereo unspecified)	.	0	-1.3	0.8	-0.1	.	.	.	.
55	CC(=O)Nc1ccc(S(=O)(=O)Nc2ncccn2)cc1	-3	5	2.3	0.74	2.1	.	.	.	.
56	COc1cccc(CC(O)CC2c3c(cc4c(c3OC)OCO4)CCN2C)c1 (stereo unspecified)	.	-8	.	.	-2.9	i	3	-8	0.0
57	O=C(CC1OC(=O)c2ccccc21)NC1CCCCC1 (stereo unspecified)	1	-1	26*	0.69	-4.6	.	.	.	.
58	C=CCOc1ccc2c(OC)c3ccoc3nc2c1OC	.	3	-320	0.69	2.4	.	.	.	.
59	COC(=O)c1ccc(N=NNc2ccccc2)cc1	-1	-4	2.8	0.71	0.8	.	.	.	.
60	COc1ccc(C(C(=O)NC2CCCC2)N(C(=O)Cc2cccs2)C2CC2)cc1OC (stereo unspecified)	.	-2	1.8	0.71	2.6	i	4	16	0.3

# Next part
no.	molecule	ALR H2O2 inh	B2AR ag	UCH37 inh	Ecoli growth	HNF4A DNA FP	FGF22 binding	rRNA inh HTS	rRNA inh HTS OD600	rRNA inh HTS RFP
61	COc1ccc(-n2nc(C(=O)NCC(=O)N3CCOCC3)c3ccccc3c2=O)cc1OC	-4	-4	4.1	0.66	0.6	i	4	-3	-0.6
62	CCOC(=O)N1CCC(NC(=O)C2CCN(S(=O)(=O)c3cnc[nH]3)CC2)CC1	.	11	1.7	0.66	0.3	.	.	.	.
63	CCOC(=O)C=Cc1ccc(C(=O)OCC)[nH]1	.	.	.	.	1.1	i	-10	-9	-0.7
64	CCCn1nc(Oc2nc(N(C)C)nc(N(C)C)n2)ccc1=O	-2	-7	0.7	0.68	-1.0	i	23	6	-0.3
65	C=CCc1ccccc1OCC(O)Cn1ccnc1C (stereo unspecified)	-4	-5	2.5	0.68	0.4	.	.	.	.
66	Cc1cccc(C(=O)NNC2=CC(=O)CC(C)(C)C2)c1O	.	-2	12	0.71	3.4	i	-6	4	13
67	CCn1nc(C)c(CN2CCC(n3nccc3NC(=O)CCCc3ccccc3)CC2)c1C	-12	8	0.9	0.64	-2.6	i	6	7	2.9
68	CCCCn1c(N)c(N(CC(C)C)C(=O)c2cccc(S(=O)(=O)N3CCN(C(C)=O)CC3)c2)c(=O)[nH]c1=O	-6	-1	0.3	0.66	0.1	i	16	24	-0.8

# With a hit mark in ALR H2O2 inh, of those listed so far:
nr | mol | ALR H2O2 inh | B2AR ag | UCH37 inh | rRNA inh HTS | rRNA inh HTS OD600 | rRNA inh HTS RFP
13 | Nc1cc(=O)[nH]c(SCC(=O)c2ccc(F)cc2)n1 | 98* | 1 | 0.7 | 11 | 2 | 4.5
16 | S=c1[nH]nc(-c2cc3c(s2)-c2ccccc2CC3)o1 | 97* | 12 | i | . | . | .

# Fetched by structure from the list above (two):
no.	molecule	ALR H2O2 inh	B2AR ag	UCH37 inh	Ecoli growth	HNF4A DNA FP	FGF22 binding	rRNA inh HTS	rRNA inh HTS OD600	rRNA inh HTS RFP
67	CCn1nc(C)c(CN2CCC(n3nccc3NC(=O)CCCc3ccccc3)CC2)c1C	-12	8	0.9	0.64	-2.6	i	6	7	2.9
61	COc1ccc(-n2nc(C(=O)NCC(=O)N3CCOCC3)c3ccccc3c2=O)cc1OC	-4	-4	4.1	0.66	0.6	i	4	-3	-0.6

# Screening results (PubChem BioAssay)
